Calb FLC = C. albicans growth modulation with fluconazole; growth inhibition, % (concentration not given with the values); C. albicans CaCi-2 (fluconazole-resistant clinical isolate) + fluconazole, Alamar Blue growth, 48 h; 300,000 tested, 0.57% active;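 active means most replicates above 75%; inconclusive means exactly half above 75%; inactive means most below 75%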;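 further: all wells also contain fluconazole at 8 µg/ml as a sub-toxic cotreatment; 0% = median of DMSO wells and 100% = median of geldanamycin control wells; wells of about 8 µL received 7.5 nL stock; the first replicate is given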
AF4-AF9 inh = inhibitors of human MLL-AF4/AF9 interaction; P42568; inhibition, % at 10 µM; AlphaScreen, biotin-AF4 peptide binding to FLAG-AF9; AID 651704; 350,000 tested, 0.47% active;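 active means every replicate reaching a set inhibition limit, whatever the replicate mean, cut at about 25% in these data; inconclusive means mean inhibition reaches that limit but some replicates miss it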;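 further: 0% = plate neutral control median and 100% = total signal loss; the record names both 10 and 1 µM as test concentration; the first replicate is given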
Target sequence (P42568 whole entry, looked up): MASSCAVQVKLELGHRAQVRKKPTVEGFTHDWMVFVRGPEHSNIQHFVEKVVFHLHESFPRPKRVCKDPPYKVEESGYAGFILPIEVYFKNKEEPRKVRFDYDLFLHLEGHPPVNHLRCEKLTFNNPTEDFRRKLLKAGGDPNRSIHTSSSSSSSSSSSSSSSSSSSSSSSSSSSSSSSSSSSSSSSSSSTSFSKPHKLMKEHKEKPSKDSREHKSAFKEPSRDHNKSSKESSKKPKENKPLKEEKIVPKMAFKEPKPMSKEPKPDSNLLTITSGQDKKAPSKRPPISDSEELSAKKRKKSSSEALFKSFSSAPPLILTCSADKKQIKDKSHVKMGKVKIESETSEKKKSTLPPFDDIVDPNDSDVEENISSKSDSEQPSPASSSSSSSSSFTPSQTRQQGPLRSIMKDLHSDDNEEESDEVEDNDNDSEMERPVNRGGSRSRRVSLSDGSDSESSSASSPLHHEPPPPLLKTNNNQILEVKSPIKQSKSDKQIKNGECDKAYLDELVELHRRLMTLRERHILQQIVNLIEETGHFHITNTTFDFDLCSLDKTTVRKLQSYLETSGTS
Ecoli rRNA inh = inhibitors of bacterial rRNA selective over humanized ribosomes; 350,000 tested, 1.6% active; E. coli WT GFP vs humanized-ribosome RFP mutants, fluorescence, 24 h; active compounds read low; DMSO median 0, no signal -100; GFP signal change (wild-type ribosome), % (no concentration beside the values);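 active means significant combined selectivity score with lowered wild-type GFP, culture density cut under 30%, mutant RFP and density less affected; inactive means any of these conditions unmet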; further: one replicate is shown; some compounds called inactive have numbers as strong as hits
T cruzi inh = blocks replication of Trypanosoma cruzi; T. cruzi beta-gal in NIH3T3, luminescence, 90 h; inhibition, % (test concentration not listed); 300,000 tested, 1.4% active; AID 1885;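 active means mean inhibition across valid replicates above about 55%, limit read from the data; inconclusive means mean below that limit but half or more replicates reach it; inactive means mean below it, under half of replicates reach it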;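 further: signal also drops with host cell toxicity which is not excluded here; 0% = plate median of DMSO wells and 100% = zero luminescence signal; higher percent means less beta-gal luminescence so fewer parasites; stock transfer was 50 nL into about 50 µL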
Vif A3G = inhibitors of Vif binding to APOBEC3G peptide, primary screen, biochemical, TR-FRET, GST-Vif 1-94, biotin-A3G peptide, dose response retest (AID 1117319); TR-FRET GST-Vif / biotin-A3G peptide binding; higher % means a stronger effect; test concentration not given here; strong numbers were not always called active; inhibition, %, or IC50 in µM where a hit was titrated; 260,000 tested, 0.57% active;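 active means above the screen mean plus three standard deviations and confirmed in dose response; inconclusive means results disagree or hit not tested in dose response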;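 further: Vif residues 1-94 fused to GST binding biotinylated APOBEC3G peptide 110-148; 0% = full assay without inhibitor and 100% = GST in place of GST-Vif; retest series ran down from 100 µM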
Bfl-1 A1 inh = inhibitors of the anti-apoptotic protein A1, read as caspase activation; MEF A1-2A-BIM cells, Caspase-Glo 3/7 luminescence, 3 h; percent of clofoctol response, vehicle zero; caspase activation, % (concentration not given with the values); 330,000 tested, 0.066% active;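 active means over half of replicate activation scores above 10%, or exactly half above 10 with the replicate mean above 10; inconclusive means replicate mean below 10 yet half the replicates above 10; inactive means over half of replicates below 10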;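 further: wells of about 30 µL received 50 nL stock; many hits fall short of the cut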
Beta apoptosis = blocks beta cell apoptosis. INS-1E cytokine-induced death, ATP luminescence, 48 h; percent of positive-control rescue, neutral wells zero. protection from apoptosis, % (test concentration not listed). 300,000 tested, 0.8% active. AID 435005;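 active means all replicates at 75% or more, or half of them and the mean; inconclusive means half reach 75% but not the mean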;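 further: 0% = cytokine-treated negative control wells and 100% = positive control rescue; higher means more ATP so stronger rescue from cytokine killing; wells of about 40 µL received 100 nL stock; the first replicate is given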
RanGTP-Impb inh = disruptors of Ran-importin-beta complex formation – biochemical, FRET, CFP-Ran, YFP-importin-beta, homogeneous, primary screen; 300,000 tested, 1.1% active; inhibition, % (concentration not given with the values); cell-free CFP-Ran/YFP-importin-beta FRET ratio;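 active means most replicates above 15%; inconclusive means exactly half above 15%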;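 further: 0% = DMSO wells and 100% = Ran loaded with GDP instead of GTP; wells of about 40 µL received 100 nL stock; the first replicate is given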
Ecoli rRNA inh OD600 = further read-out of Ecoli rRNA inh, marked with its call; OD600 change, %; measured here: OD600 growth;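 optical density of the mix in the first replicate; 0 = DMSO median and -100 = no signal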
Ecoli rRNA inh RFP = second read-out of Ecoli rRNA inh, no call of its own (marks repeat the call); RFP signal change, %; measured here: RFP humanized mutant strains;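 first replicate; 0 = DMSO median and -100 = no signal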
Starred values were filed as active, the others as inactive; ? = inconclusive; nt = not tested or not shown. These rows are one share of the data; the hit share may differ from the screen's.

SMILES	Calb FLC	AF4-AF9 inh	Ecoli rRNA inh	Ecoli rRNA inh OD600	Ecoli rRNA inh RFP	T cruzi inh	Vif A3G	Bfl-1 A1 inh	Beta apoptosis	RanGTP-Impb inh
COc1ccc(/C=C/C(=O)Nc2ccc(-c3nnc4n3CCCCC4)cc2)c(OC)c1	16	17	-20*	-0.7*	-5.2*	-26	nt	0.6	12	-3.7
CCC(c1nnc(SCC(=O)Nc2ccc(C(N)=O)cc2)n1Cc1ccccc1)N(C)C (centres undefined)	29	-1.1	0	-6	-0.4	-8	nt	0.1	5	-0.6
COC(=O)C1=C(SC)N(c2ccc(OC)cc2)C(c2ccccc2)CC1=O (centres undefined)	-9	2.6	-1	-1	-3.5	-1	-7%	-0.8	-1	-2.8
COC(=O)CCC(=O)OC1(C)C(=O)C=C2C=C(C3CC3)N(C3CCCCC3)C=C2C1=O (centres undefined)	10	2.4	15	10	9.9	19	18%	0.4	-9	-3.7
CCC(C)N1CCCC1C(=O)Nc1c(C)cc(C)cc1C (centres undefined)	3	nt	nt	nt	nt	3	-3%	0.4	-5	-2.0
COc1ccc(S(=O)(=O)NCC2CCCN(Cc3cccc(C(C)=O)c3)C2)cc1 (centres undefined)	9	0.9	-2	5	-2.8	40	nt	1.0	-1	3.1
COc1cc(-c2nnc(COC(=O)c3ccc(C)o3)o2)cc(OC)c1OC	nt	-2.4	9	14	-2.4	nt	nt	-2.0	0	nt
Cc1ccc(-c2csc(Cc3nc(-c4ccc5c(c4)CCC(=O)N5)cs3)n2)cc1	-2	-5.6	4	5	1.5	14	?	-0.4	9	-1.5
O=C(NCCOc1cccc2cccnc12)c1cccs1	-7	0.7	-7	-6	-0.1	-8	-4%	0.0	3	-0.6
C/C(=N\NC(=O)c1ccc(F)cc1)c1ccc(NC(=O)Cc2ccccc2)cc1	-1	-2.8	15	7	0.2	-8	nt	0.2	1	2.6
COC(=O)c1cccc(Nc2ncnc3sccc23)c1	16	-1.4	10	3	5.7	10	?	-1.1	0	-0.2
COc1cc(-c2noc(C)c2C(=O)NCCO)cc(OC)c1OC	3	-8.1	15	12	-0.8	-12	nt	2.1	-2	-0.7
CCOCCn1c(COc2ccc(C)cc2)nc2ccccc21	0	nt	nt	nt	nt	15	nt	-1.4	2	0.8
O=C(N/N=C/c1cc(Br)cc(Cl)c1O)c1ccc2c(c1)OCO2	94*	1.3	nt	nt	nt	46	nt	-0.2	94*	?
Cc1cccc(N2CC(C(=O)Nc3nnc(SCC(=O)Nc4cc(C)on4)s3)CC2=O)c1 (centres undefined)	-18	0.2	12	20	4.0	1	0%	2.3	5	2.8
COC(=O)CNC(=O)c1cn(-c2ccc(C)c(C)c2)c(=O)c2ccccc12	-2	-0.5	-1	-2	2.0	-6	8%	-0.9	-3	5.4
CCN(CC)CCNC(=O)C(=O)NCC1OCCN1S(=O)(=O)c1ccc(Cl)cc1 (centres undefined)	13	8.0	nt	nt	nt	7	nt	-0.3	-11	-3.3
COc1ccccc1OCC(=O)Nc1nonc1NC(=O)COc1ccccc1OC	-16	nt	nt	nt	nt	-4	nt	-0.5	-12	1.0
Cc1cc(C)c2c(n1)SCC(=O)N2CC(=O)NCCC1=CCCCC1	-5	10	9	9	0.6	13	6%	1.1	3	1.4
O=C1CSC(=Nc2cc(Cl)ccc2Cl)N1	26	-1.7	nt	nt	nt	-5	9%	-1.2	-1	1.7
Cc1cc(=O)oc2cc(OCC(=O)NCCCN3CCOCC3)c(Cl)cc12	1	-9.5	0	-3	-0.6	-27	nt	1.2	2	-1.1
O=[N+]([O-])c1ccc(NC(=S)N/C(=N/CS(=O)(=O)c2ccccc2)c2ccccc2)cc1	-3	nt	nt	nt	nt	17	0%	-0.4	1	3.7
Cc1ccc(NC(=S)N2CCC(N(C)CC3CCCO3)CC2)c(C)c1 (centres undefined)	-1	nt	nt	nt	nt	-10	-5%	-3.6	-4	5.5
Cc1cc(=O)n2[nH]c(SCc3c(F)cccc3Cl)nc2n1	-3	-2.4	nt	nt	nt	-15	nt	-2.3	-4	5.3
CCCOc1ccc(C(CC(=O)O)NC(=O)Cc2ccccc2)cc1 (centres undefined)	6	2.0	11	13	0.3	-16	nt	1.7	0	?
CCn1c(CCNC(=O)c2ccco2)nc2ccccc21	0	-0.3	5	10	-1.0	3	nt	-0.6	-6	1.2
COc1ccc(C(=O)NCc2nnc(SCC(=O)Nc3ccccc3OC)o2)cc1	-6	-7.9	3	3	1.5	13	nt	0.0	4	-7.8
CCN=c1sc2ccccc2n1CC(O)COc1ccccc1 (centres undefined)	10	nt	nt	nt	nt	9	0%	-0.6	0	0.3
COc1ccccc1OCCn1c(CO)nc2ccccc21	26	nt	nt	nt	nt	-5	-3%	1.5	-5	0.8
COC(=O)Cn1c(CN(C)Cc2ccccc2)nc2c1c(=O)n(C)c(=O)n2C	13	-2.6	-3	3	0.9	-5	nt	0.3	-2	11
CCSc1nnc(-c2cc3c(s2)-c2ccccc2CC3)o1	0	nt	nt	nt	nt	-3	-4%	-2.2	2	-1.0
C/C(CC(=O)Nc1ccc2c(c1)OCO2)=N\NC(=O)c1ccc(N)cc1	3	-0.9	3	8	-3.4	0	-11%	-0.4	nt	2.6
CC(=O)N(/N=C/c1ccc([N+](=O)[O-])o1)c1nc2ccccc2c(=O)n1-c1ccccc1	14	-0.5	-23	-6	-2.3	36	nt	-1.1	-2	5.1
O=C(COc1ccc(S(=O)(=O)N2CCOCC2)cc1)N1CCc2ccccc2C1	15	7.6	-4	1	-8.5	-5	nt	0.4	-3	5.6
O=C(NCCCN1CCOCC1)c1cc(-c2ccc(Cl)cc2)on1	-4	-5.4	3	-4	-3.6	18	?	0.1	2	-1.2
COC(=O)c1cc(NC(=O)c2c(Cl)nc3sccn23)cc(C(=O)OC)c1	0	nt	nt	nt	nt	-8	-5%	1.3	24	-4.1
CCOC(=O)C(C)n1nc(/C=C/c2ccc(OC)cc2)ccc1=O (centres undefined)	29	7.8	-16	-11	0.1	1	-5%	-0.2	0	2.3
CCN(CC)C(=O)c1cc2c(=O)oc3ccccc3c2s1	-5	nt	nt	nt	nt	3	-7%	-0.5	1	2.1
O=C(NCCCn1ccnc1)c1cc2ccccc2o1	6	-5.5	4	4	-6.1	1	-7%	0.2	1	0.4
Cc1ccc(S(=O)(=O)Nc2nncs2)cc1	20	nt	nt	nt	nt	-13	-2%	-0.4	-3	3.6
O=C(NCC1(c2ccccc2)CCCC1)c1cccc(Br)c1	-7	nt	nt	nt	nt	22	-2%	0.2	-1	4.5
CN1CCN(CC(=O)NC(=O)NC2CCCCC2)CC1	nt	-0.1	9	10	-3.8	nt	-3%	-0.3	-8	nt
Brc1ccc(CSc2nnc(-c3ccco3)o2)cc1	-12	-1.3	-22*	-17*	0.4*	-13	-2%	0.8	-2	-4.6
CC(=O)c1sc(NC(=O)c2ccc(C)c(C)c2)nc1C	20	-4.6	20	20	4.2	1	nt	-4.6	7	-3.5
O=C(COC(=O)CNC(=O)c1ccc(Cl)cc1)Nc1cccc(S(=O)(=O)N2CCCC2)c1	1	-38	-14	-6	3.4	-14	nt	-0.8	-1	2.8
CN1CCN(C(=O)CN(c2ccccc2)S(=O)(=O)N(C)C)CC1	4	-1.4	6	27	0.9	-3	27%	0.1	-1	-1.8
CCN(CC)c1ccc(NC(=O)CCN2C(=O)c3ccccc3S2(=O)=O)c(C)c1	-3	-15	7	4	-0.2	2	0%	-0.3	11	2.8
O=C(Nc1cc(N2CCOCC2)ncn1)Nc1cccc2ccccc12	2	nt	nt	nt	nt	21	-2%	-0.3	2	2.0
CC(C)(C)C(=O)/C=C(N)/C=C/c1ccccc1	-33	nt	nt	nt	nt	18	-2%	0.4	9	-1.2
COCCn1c(NC(=S)NC(=O)C2CC2)cc(=O)[nH]c1=O	2	-2.1	10	-11	-0.1	1	-10%	-0.9	-6	-1.0
CSCC(C)N1CCC(n2nccc2NC(=O)c2ccc3c(c2)OCO3)CC1 (centres undefined)	24	-2.3	2	4	2.8	32	nt	2.7	-1	11
CCC1CCCCN1C(=O)Nc1ccc(F)cc1 (centres undefined)	-1	nt	nt	nt	nt	-15	-2%	0.9	0	2.6
CCOC(=O)N1CCC(NC(=O)c2cc(COc3ccccc3SC)on2)CC1	3	0.7	2	0	-2.0	8	-2%	-0.8	4	2.2
Clc1ccc(CNc2ccccc2NCc2ccc(Cl)nc2)cn1	-23	6.7	-4	11	8.4	-7	3%	-0.3	3	-1.4
CC(C)(C)C(=O)Nc1ccc(S(=O)(=O)N2CCC(c3nc4ccccc4[nH]3)CC2)cc1	0	0.9	-7	-1	1.8	-22	-4%	-0.3	12	0.4
CCS(=O)(=O)N1Cc2ccccc2CC1C(=O)Nc1ccc(F)c(F)c1F (centres undefined)	-7	5.1	-9	-5	-3.1	-17	-2%	0.0	1	?
COCCCNC(=S)NNC(=S)Nc1ccccc1	2	nt	7	14	0.7	-10	-5%	-0.1	2	-0.8
O=C(O)c1ccccc1-c1ccc(/C=c2\sc3nc4cc(Br)cnc4n3c2=O)o1	26	nt	nt	nt	nt	-17	?	-0.7	-7	-19
CCCc1nc(N)c(C#N)c(-c2ccco2)c1CC	-26	nt	nt	nt	nt	12	0%	0.4	-9	0.2
N=c1sccn1CC(=O)Nc1ccccc1-c1ccccc1	5	nt	nt	nt	nt	-10	?	0.3	-11	-1.6

(more compounds)
SMILES	Calb FLC	AF4-AF9 inh	Ecoli rRNA inh	Ecoli rRNA inh OD600	Ecoli rRNA inh RFP	T cruzi inh	Vif A3G	Bfl-1 A1 inh	Beta apoptosis	RanGTP-Impb inh
NC(=O)CC(NC(=O)Cc1ccc(Cl)cc1)c1ccc(NC2CCCCCCC2)c([N+](=O)[O-])c1 (centres undefined)	4	nt	nt	nt	nt	-5	nt	1.4	-7	-0.7
COc1ccc(NC(C)=O)cc1S(=O)(=O)N1CCN(C(=O)c2ccccc2F)CC1	0	-1.9	1	9	4.5	-5	-7%	-0.3	0	-3.5
CCOC(=O)C1CCN(C(=O)c2ccc3c(Cl)c4c(nc3c2)CCCC4)CC1	7	-6.9	-4	-14	0.6	-6	nt	0.2	2	-1.6
COc1ccc(C(=O)NCc2cnn(C)c2)cc1OC1CCN(C(C)C)CC1	-1	-4.7	2	8	-2.5	-6	nt	-0.4	-4	4.5
O=C(O)c1cc2c(ccc3ccccc32)[nH]1	-8	nt	nt	nt	nt	6	-2%	1.1	-5	?
COc1cccc2cc(C(=O)N3CC(C)OC(C)C3)c(=O)oc12 (centres undefined)	-2	-2.4	7	7	3.9	-15	13%	-0.2	nt	-2.8
CN(CCc1ccccc1)C(=O)c1ccc(NC(=O)Cc2cccc([N+](=O)[O-])c2)cc1	nt	1.6	-18	-12	-3.6	nt	nt	1.1	-2	nt
COc1ccc(-c2cc(C3CCNCC3)[nH]n2)cc1	4	3.4	-2	5	14	50	-2%	0.2	-7	-0.8

Bioassay records (PubChem BioAssay)
